AmpC nodet inh: blocks E. coli AmpC beta-lactamase in absence of detergent; 1.8% of 71,000 active; AID 585; P00811; AmpC nitrocefin hydrolysis, absorbance 480 nm, no detergent; potencies from a single point are estimates; Potency, µM (doses to about 28.7 µM), inactives show at the top dose activity change, negative = inhibition; active = falling curve, for most hits resting on a single point; inconclusive = weak or doubtful change; inactive = flat or rising curve; note: % of control where 0% means no effect; a quarter of the inactives give rising signals
Target sequence (P00811 whole entry, looked up): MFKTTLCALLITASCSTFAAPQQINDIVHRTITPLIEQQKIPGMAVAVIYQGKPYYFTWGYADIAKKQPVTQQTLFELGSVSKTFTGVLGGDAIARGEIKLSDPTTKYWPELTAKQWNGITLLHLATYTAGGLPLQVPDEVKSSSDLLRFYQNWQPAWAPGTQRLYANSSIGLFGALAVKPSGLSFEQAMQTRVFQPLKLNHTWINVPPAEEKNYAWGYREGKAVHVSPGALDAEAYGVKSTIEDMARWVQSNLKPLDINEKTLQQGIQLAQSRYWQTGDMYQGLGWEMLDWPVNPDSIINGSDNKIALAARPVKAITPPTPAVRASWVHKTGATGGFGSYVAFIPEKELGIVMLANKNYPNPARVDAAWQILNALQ
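Enzyme, pH 7.0 phosphate. Compound titrations were pre-incubated with AmpC for 15 min at room temperature before nitrocefin (stock 800 uM) addition; product formation was recorded at 480 nm every 20 s for 4 min.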
* marks the source's active call; other numbers are inactive results; & = joins results of further samples; [ ] = dose if it differs, or a comment. Potency is the fitted concentration of half-maximal effect.

Compound | AmpC nodet inh
Cc1ccccc1N1CCN(S(=O)(=O)C[C@@]23CC[C@H](C[C@H]2NC(=O)[C@@H](N)CCS(C)(=O)=O)C3(C)C)CC1 | 132%
CCOc1ccc(Cl)cc1CSc1n[nH]c(CC)n1 | -3%
CCCCCCOC(=O)Sc1nc2ccccc2o1 | 7%
N=c1sccn1CC(=O)Nc1ccc(S(=O)(=O)N2CCOCC2)cc1 | -5%
Cc1nn(-c2ccccc2)c2c1C(c1ccc3c(c1)OCO3)SCC(=O)N2 (stereo unspecified) | 11%
CCCNC(=O)CN(c1ccc(F)c(Cl)c1)S(C)(=O)=O | 11%
N[C@@H](Cn1ccc(=O)n(Cc2ccccc2C(=O)O)c1=O)C(=O)O | -5%
COC(=O)[C@@]1(Cc2ccccc2)[C@H]2c3cc(C(=O)N4CCCC4)n(Cc4ccc(C)o4)c3C[C@H]2CN1C(=O)c1ccccc1 | 157%
O=C(CCn1c(SCC(=O)NCc2ccco2)nc2ccccc2c1=O)NCCc1ccccc1 | 12%
Cc1c2cn[nH]c(=O)c2c(C)n1Cc1ccc(F)cc1 | 17%
O=C(CCC(=O)N1CCN(S(=O)(=O)c2ccccc2)CC1)NC1CCCc2ccccc21 (stereo unspecified) | 89%
O=C(NCc1nnc2n1CCCCC2)c1ccc(Cl)cc1Cl | -1%

Molecules above containing a Cl atom:
Compound | AmpC nodet inh
CCOc1ccc(Cl)cc1CSc1n[nH]c(CC)n1 | -3%
CCCNC(=O)CN(c1ccc(F)c(Cl)c1)S(C)(=O)=O | 11%
O=C(NCc1nnc2n1CCCCC2)c1ccc(Cl)cc1Cl | -1%

At a glance, some entries already given:
Compound | AmpC nodet inh
Cc1nn(-c2ccccc2)c2c1C(c1ccc3c(c1)OCO3)SCC(=O)N2 (stereo unspecified) | 11%
CCCNC(=O)CN(c1ccc(F)c(Cl)c1)S(C)(=O)=O | 11%
N[C@@H](Cn1ccc(=O)n(Cc2ccccc2C(=O)O)c1=O)C(=O)O | -5%
COC(=O)[C@@]1(Cc2ccccc2)[C@H]2c3cc(C(=O)N4CCCC4)n(Cc4ccc(C)o4)c3C[C@H]2CN1C(=O)c1ccccc1 | 157%
O=C(CCn1c(SCC(=O)NCc2ccco2)nc2ccccc2c1=O)NCCc1ccccc1 | 12%
Cc1c2cn[nH]c(=O)c2c(C)n1Cc1ccc(F)cc1 | 17%

Going on with the list.
Compound | AmpC nodet inh
COc1ccc(S(=O)(=O)Cc2ccc(C(=O)N3CCN(Cc4ccccc4)CC3)o2)cc1 | 109%
O=C(O)CCSc1nnc(-c2ccccc2)n1-c1ccccc1 | -2%
COC(=O)/C=C(\C)NC(=O)c1cccs1 | -2%
Cc1oc2nc(SCC(=O)NCc3cccnc3)nc(N)c2c1C | -2%
CCCS(=O)(=O)NCCc1csc(-c2cccnc2)n1 | 17%
O=C(O)CCCCCN1C(=O)C(=O)/C(=C(/O)c2ccccc2)C1c1ccccc1 (stereo unspecified) | -1%
Cc1ccc(N2CC(C(=O)Nc3cc(C)ccc3F)CC2=O)cc1 (stereo unspecified) | 13%
CCOC(=O)C1CCN(C(c2cc3c(C)ccc(C)c3[nH]c2=O)c2nnnn2C2CCCCC2)CC1 (stereo unspecified) | 126%
O=C(O)C1C2C=CC(C3CC23)C1C(=O)NCCc1ccccc1 (stereo unspecified) | 15%
O=C(Nc1ccc2c(c1)OCO2)c1c(F)cccc1F | -2%
Cc1nc2sc3c(c2c2nc(-c4ccco4)nn12)CC(C)(C)OC3 | 23%
COc1ccc(-c2nnc3sc(COc4ccc(C)cc4)nn23)cc1 | 50%
O=C(Nc1ccc(S(=O)(=O)N2CCC(C(=O)NC3CCCCC3)CC2)cc1)c1ccco1 | 1%
COc1ccc(-n2c3c(cc(C(=O)N4CCC(C)CC4)c2=O)C(=O)CC(C)(C)C3)cc1 | 48%
C=CCc1ccc2c(c1)OCO2 | -7%
COC(=O)c1ccc(OCC(O)CN2CCC(C)CC2)cc1 (stereo unspecified) | -4%
O=C1/C(=C/c2ccccc2)[C@@H](NC2CCCCC2)c2ccccc21 | 9%[5.75 µM]
COc1ccc(CCNC(=O)C2CCN(S(=O)(=O)c3cnc[nH]3)CC2)cc1OC | -4%
Cc1cc(NC(=O)c2ccccc2)sc1C | -13%
CC(C)(C)OC(=O)N1CCC[C@H]1c1nnc(SCc2c(F)cccc2Cl)o1 | 67%
O=C(Nc1cccc(OC(=O)N2CCCCC2)c1)N1CCCCC1 | 22%
CCCOc1ccc(S(=O)(=O)NCc2ccc(OC)cc2)cc1 | -9%
CC(=O)Oc1ccccc1C(=O)O | -3%&-13%&-8%
CCn1c(CNc2ccc(C)cc2)nnc1SCC(=O)NCc1ccccc1 | 48%
CCC(=O)Nc1nc(OC)cc(OC)n1 | -6%
CC1CCN(S(=O)(=O)c2ccc(NC(=O)Cn3nnc(-c4ccccc4F)n3)cc2)CC1 | -16%
CCN(CC)CCNc1ccnc2cc(Cl)ccc12 | 4%
O=C(CN1C(=O)NC2(CCCc3ccccc32)C1=O)N1CCc2ccccc2C1 (stereo unspecified) | 18%
COC(=O)c1ccc2c(c1)N(Cc1nc(-c3cccc(Cl)c3)oc1C)C(=O)C1CCCN21 (stereo unspecified) | 23%
O=C(Nc1ccccc1)NC1(C(=O)NCCCN2CCOCC2)CCCCC1 | -7%
CC1Cc2ccccc2N1C(=O)CSc1ncccc1C(=O)O (stereo unspecified) | -6%
N#CC1=C(N)N=C(SCc2ccccc2)C(C(N)=O)C12CCCCC2 (stereo unspecified) | 9%
Cc1ccc(C)c(N2CCN(C(=O)C3CCCN(S(=O)(=O)c4c(C)[nH]c(=O)[nH]c4=O)C3)CC2)c1 (stereo unspecified) | 117%
CC(C)(C)NC(=O)NC(=O)COC(=O)Cn1c(C(F)(F)F)nc2ccccc21 | 24%
c1ccc(CSc2nnc(-c3cccs3)n2Cc2ccco2)cc1 | 10%
CCCCOc1ccc(C(=O)NCc2ccco2)cc1 | 4%

(cont.)
| canonical_smiles | AmpC nodet inh |
| --- | --- |
| CCCn1c(SCC(=O)Nc2nonc2C)nnc1-c1ccoc1C | -4% |
| c1ccc(CNc2ccc3c(c2)ncn3C2CCCCC2)nc1 | 22% |
| O=C1NC(c2cccs2)C(C(=O)c2ccccc2)C(O)(C(F)(F)F)N1 (stereo unspecified) | 2% |
| COCCNC(=O)c1c[nH]c2cc(OC)c(OC)cc2c1=O | -1% |
| CCOC(=O)C(C)c1n[nH]c(=O)c2ccccc12 (stereo unspecified) | 5% |
| C=CCn1c(O)c(C(CC)=Nc2ccccc2NC(C)=O)c(=O)[nH]c1=O | 5% |
| Cn1c(C(=O)O)c(CC(=O)Nc2ccccc2F)c2ccccc21 | -7% |
| CCc1nccn1S(=O)(=O)c1ccc(C)c(C)c1 | -5% |
| O=C(c1ccco1)N1CCN(C(=O)c2ccccc2Oc2ccccc2)CC1 | 27% |
| CCOC(=O)c1cc(OC(=O)c2cccs2)n(-c2ccccc2)n1 | 23% |
| CS(=O)(=O)N(CCc1ccccc1)CC(=O)NCc1cccnc1 | -2% |
| CCOC(=O)c1ccccc1NC(=O)CC1Nc2ccccc2NC1=O (stereo unspecified) | 5% |
| CC(=O)c1ccc(N2CCN(C(=O)C3CCC3)CC2)cc1 | 18% |
| CN(C)CCCN=c1c2ccccc2n(C)c2[nH]c(=O)n(C)c(=O)c12 | 3%[5.75 µM] |
| Cc1ccc(N2C(=O)C3C4C=CC(C4)C3C2=O)cc1C (stereo unspecified) | -6% |
| CCN(CC)C(=O)CSc1nc2ccc(NC(=O)CSc3nccn3C)cc2s1 | 42% |
| COc1cc(C(=O)NCc2nnc(SCC(=O)Nc3cc(C)cc(C)c3)o2)cc(OC)c1OC | 65% |
| Cc1cc(O)cc(O)c1C(=O)Cc1cscn1 | -12% |
| CC(=O)Nc1ccc(N)cc1 | 8% |
| CCN1C(=O)C2C(c3cccc(F)c3)NC(CC)(C(=O)OC)C2C1=O (stereo unspecified) | -6% |
| Cc1ncsc1CCOC(=O)c1cccnc1 | -11% |
| CCC1(CC)C(=O)N=C2c3ccccc3C(=O)N21 | -4% |
| CCN(CC)C(=O)Oc1ccc2c(=O)c(-c3ccccc3)coc2c1 | 42% |
| Cn1c(=O)cc(SCC(=O)NCCN2CCN(c3ccccc3F)CC2)c2cc(Cl)ccc21 | 129% |
| COc1ccc(OCc2nn3c(Cn4cnc5ccccc54)nnc3s2)cc1 | 51% |
| O=C(Nc1ccc(-c2nnco2)cc1)c1ccccc1 | -12% |
| CCn1c(CNc2ccc(F)cc2)nnc1SCCN1CCCCC1 | -16% |
| Cc1c(C(=O)N2CCCC2)sc(NC(=O)c2cccs2)c1C#N | -11% |
| CN(C)c1ncc2nc(-c3ccc(F)cc3)c(=O)n(Cc3cccs3)c2n1 | -14% |
| CCc1nnc(NC(=O)c2cc3ccccc3oc2=O)s1 | -1% |
| Cc1ccc2c(C(=O)CN3CCCC3)c(C)[nH]c2c1 | 6% |
| O=C(O)C1CCCCC1C(=O)NCCCCc1ccccc1 (stereo unspecified) | -20% |
| CN1Cc2ccccc2[C@@H]2c3cccc4[nH]cc(c34)C[C@H]21 | 65% |
| CCc1c(C)nc(N2CCOCC2)[nH]c1=O | -8% |
| Cc1cc(C)nc(SCSc2nc(C)cc(C)n2)n1 | 10% |
| N#Cc1ccsc1NC(=O)CSc1ncnc2ccccc12 | -1% |
| CCCOc1ccc(C(=O)Nc2ccc(N(C)C)cc2)cc1 | -1% |
| CCOc1ccc(C2/C(=C(/O)c3ccc(Cl)cc3)C(=O)C(=O)N2CCCN(C)C)cc1OC (stereo unspecified) | -2% |
| O=C(Nc1ccccc1C(=O)N1CCOCC1)C1CC(=O)N(C2CCCC2)C1 (stereo unspecified) | 4% |
| CCc1ccc(NC(=O)N(CCN2CCOCC2)C2CCN(C(C)=O)CC2)cc1 | 40% |
| Cc1cc(/N=C/N(C)C)on1 | -10% |
| CCOc1cccc(-c2nnc(SCC(=O)Nc3ccc(OC)c(OC)c3)n2N)c1 | 7% |
| COCCOC(=O)C1=C(C)N=c2s/c(=C\c3cccs3)c(=O)n2C1c1cccs1 (stereo unspecified) | -9% |
| O=C(CSc1nnc(CNc2ccc(F)cc2)n1Cc1ccccc1)NCc1ccco1 | -10% |
| CCc1nnc(NC(=O)CSc2ncc(-c3ccccc3)n2C)s1 | 11% |
| O=C(Cn1c(CC(=O)N2CCCC2)nc2ccccc21)NCc1ccccc1 | 2% |
| CCn1c(SCc2nnc(-c3ccccc3)o2)nnc1-c1ccc(S(=O)(=O)N2CCCC2)cc1 | 76% |
| CC1=C(C(=O)N2CCCCC2)C2(CCC(C)CC2)OC1=O (stereo unspecified) | 19% |
| CCOc1ccc2nc(NC(=O)COC)sc2c1 | 8% |
| CC(=O)NCCn1ccc2ccccc21 | 0% |
| COc1ccc(C2C(C(=O)NCCN3CCOCC3)c3ccccc3C(=O)N2C)cc1OC (stereo unspecified) | -2% |
| CCNc1nc(NC#N)nc(SCC(=O)OCC)n1 | -8% |
| CCCCn1c(SCn2nnc3ccccc3c2=O)nc2cc(C(=O)OC)ccc2c1=O | 23% |
| Cc1nc(-c2cccc(N)c2)cs1 | -10% |
| CC(Sc1ccccn1)C(=O)Nc1ccccc1 (stereo unspecified) | -5% |
| Cn1c(SCCOc2ccc(Cl)cc2)nnc1-c1ccncc1 | 42% |
| CCCc1cc(C(=O)Nc2sc3c(c2C#N)CCC3)no1 | 4µM*[single pt active] |
| CCN(CC)CCCCn1c(-c2ccccc2)nc2c(Nc3ccccc3)nc(C)nc21 | 84% |
| Cc1ccc(-c2ccc(S(=O)(=O)N3CCN(C)CC3)cc2)cc1 | 69% |
| COc1ccc(CCNC(=O)c2cnc3scc(C)n3c2=O)cc1OC | 50% |

Next section:
| canonical_smiles | AmpC nodet inh |
| --- | --- |
| O=C(c1cc(=O)c2ccccc2o1)N1CCCc2ccccc21 | 2% |
| CCOC(=O)C(C)Oc1ccc(C2NC(=O)NC(C)=C2C(C)=O)cc1Br (stereo unspecified) | -13% |
| CS(=O)(=O)c1ccc(-c2cc(Br)sc2-c2ccc(F)cc2)cc1 | 58% |
| Cc1nc(N2C(=O)C(=O)/C(=C(/O)c3ccccc3)C2c2ccco2)sc1C (stereo unspecified) | -19% |
| CCOC(=O)N1CCN(C(=O)CCn2nc(-c3ccccc3)ccc2=O)CC1 | 33% |
| CCOC(=O)CCn1c2nc(C)cc(C)c2c(=O)n1-c1ccccc1 | 14% |
| CC(=O)N1[C@H](Cc2ccccc2)C=C[C@]1(C)C(=O)NCc1ccc(C)o1 | 96% |
| O=C1CC(N2CCCc3ccccc32)C(=O)N1c1ccccc1 (stereo unspecified) | -2% |
| O=C(c1ccc(S(=O)(=O)N2CCOCC2)cc1)N(c1ccc(F)cc1)C1C=CS(=O)(=O)C1 (stereo unspecified) | 17% |
| O=C(c1cnccn1)N1CCN(C/C=C/c2ccccc2)CC1 | 8% |
| CC(=O)c1coc2ccc(OCC(=O)O)cc12 | -24% |
| COCCCn1c(SCC(=O)N(C)C)nnc1-c1ccccc1 | -3% |
| Cc1cc(C)c2c(=O)[nH]c(SCC(=O)N3CCCCC3)nc2n1 | 1% |
| Cc1cccc(NC(=O)Cn2cccc2)c1 | 3% |
| COc1ccc2cnn(Cc3ccccc3)c(=O)c2c1OC | 6% |
| COC(=O)c1ccc(NC(=O)CN(C)S(=O)(=O)c2ccc(OC)c(C)c2)cc1 | 11% |
| Cc1cc(C)n(-c2nc3ccccc3nc2N2CCN(C(=O)c3ccccc3)CC2)n1 | 88% |
| COc1ccc(C(=O)Nc2ccncc2)cc1OC | -12% |

Ordered by heavy-atom count (low to high): some entries from above.
| canonical_smiles | AmpC nodet inh |
| --- | --- |
| Cc1cccc(NC(=O)Cn2cccc2)c1 | 3% |
| Cc1cc(C)c2c(=O)[nH]c(SCC(=O)N3CCCCC3)nc2n1 | 1% |
| O=C(c1ccc(S(=O)(=O)N2CCOCC2)cc1)N(c1ccc(F)cc1)C1C=CS(=O)(=O)C1 (stereo unspecified) | 17% |

The list is partial, so the mix of outcomes need not match the whole.
